Bioassay records as filed in PubChem BioAssay.
D2 potentiator = positive allosteric modulators of human D2 dopamine receptor; 360,000 compounds, 0.23% hits; DiscoveRx D2 beta-arrestin cells, luminescence, 90 min; 100% = 57 uM dopamine signal; potentiation, % (no concentration beside the values); active = potentiation of 50% or more; inconclusive = 30% to 50%; inactive = 30% or less;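 also: compound concentration not given in the record; tested on top of an EC20 dose of dopamine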
Target sequence (P14416 whole entry, looked up): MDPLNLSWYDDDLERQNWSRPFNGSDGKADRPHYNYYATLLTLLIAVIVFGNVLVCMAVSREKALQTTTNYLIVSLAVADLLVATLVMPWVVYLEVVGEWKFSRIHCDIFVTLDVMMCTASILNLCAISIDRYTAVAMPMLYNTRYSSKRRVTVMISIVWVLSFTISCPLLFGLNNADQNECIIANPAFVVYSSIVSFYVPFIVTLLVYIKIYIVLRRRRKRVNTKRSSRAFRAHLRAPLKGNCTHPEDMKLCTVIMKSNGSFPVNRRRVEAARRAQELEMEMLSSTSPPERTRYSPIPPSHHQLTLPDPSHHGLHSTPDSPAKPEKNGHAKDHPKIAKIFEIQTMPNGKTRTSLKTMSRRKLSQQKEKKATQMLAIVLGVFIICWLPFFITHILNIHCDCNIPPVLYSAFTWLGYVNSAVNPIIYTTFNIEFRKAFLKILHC
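PathHunter beta-arrestin assay in DiscoveRx D2 cells. Compounds were added with an EC20 of dopamine (50 nM final) for 90 min at 37 deg C. Luminescence was read 1 h after detection reagent, with 57 uM dopamine as the EC100 control.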
D2 ag = activates the human D2 dopamine receptor; P14416; activation, % (concentration not given with the values); 360,000 compounds, 0.084% hits; DiscoveRx PathHunter D2 beta-arrestin, luminescence, 90 min; 100% = 57 uM dopamine signal; in the data active = activation above about 40%; inconclusive = about 15% to 40%; inactive = below about 15%; also: the text of the record calls up to 30% inactive
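Agonist mode: compounds alone added to overnight-plated D2 PathHunter cells for 90 min at 37 C, with 57 uM final dopamine (EC100) defining full response. Beta-arrestin recruitment detected by chemiluminescent reagent, read after 1 h at ambient temperature.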
TRPML1 agonist = activates the human TRPML1 channel; activation, % (concentration not given with the values); 410,000 compounds, 0.12% hits; Q9GZU1; TRPML1-expressing cells, Ca2+ dye fluorescence, FDSS; host cell line not named in the record; reference of the full effect not given here; AID 624414; in the data active = activation above about 50%; inconclusive = about 30% to 50%; inactive = below about 30%; also: 0% is about no effect; the text of the record puts the active cut at 80%
Target sequence (Q9GZU1 whole entry, looked up): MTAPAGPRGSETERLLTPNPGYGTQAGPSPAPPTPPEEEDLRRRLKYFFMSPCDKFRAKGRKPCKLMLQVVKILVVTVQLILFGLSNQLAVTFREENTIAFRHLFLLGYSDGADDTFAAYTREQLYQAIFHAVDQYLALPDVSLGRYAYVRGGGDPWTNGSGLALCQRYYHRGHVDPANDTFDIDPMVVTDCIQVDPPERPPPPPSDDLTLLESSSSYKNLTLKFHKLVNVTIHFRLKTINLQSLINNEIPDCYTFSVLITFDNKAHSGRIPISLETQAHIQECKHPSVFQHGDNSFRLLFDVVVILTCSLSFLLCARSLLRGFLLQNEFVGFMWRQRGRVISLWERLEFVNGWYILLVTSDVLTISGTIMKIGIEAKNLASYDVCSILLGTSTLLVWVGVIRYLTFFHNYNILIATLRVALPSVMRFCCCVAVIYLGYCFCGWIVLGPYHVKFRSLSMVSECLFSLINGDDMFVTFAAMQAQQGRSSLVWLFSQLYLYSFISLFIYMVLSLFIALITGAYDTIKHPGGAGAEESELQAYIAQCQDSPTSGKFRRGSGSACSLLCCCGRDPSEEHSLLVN
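Cells: TRPML1-DL, 1X Tet inducer, ~16 h at 37 degrees C/5% CO2. Dye: ABD Ca8 no-wash + quencher, 45-90 min RT. Read: 10 s baseline, compound add, 110 s agonist phase; 54-4 EC80 (4uM final), 110 s antagonist phase.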
PINK1 expr mod = modulators of PINK1 expression. Potency, µM (series often up to 76.6 µM), inactives show top-dose activation (PINK1 increase), actives largely listed as activators. PINK1 immunofluorescence, high-content cytometry, 24 h. 410,000 compounds, 0.2% hits; active = well fitted activation curve with a large enough effect; inconclusive = small, poorly fitted or top-dose-only effect; inactive = flat fitted curve, though single readings scatter; cell line not stated here;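 also: potency is read from the fitted curve at half-maximal effect; % of control where 0% means no effect; nearly all actives have a fitted effect of over 65% in size; a mitochondrial uncoupler was the plate control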
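Compound titrations (5 concentrations, 24 h) on a stable cell line; DMSO and CCCP controls. Endpoint: fixed-cell PINK1 immunofluorescence with mitochondrial, cell and nuclear markers, scanned by microplate cytometer.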
CtBP-E1A inh = blocks the CtBP interaction with E1A. AlphaScreen GST-E1A/His-CtBP binding, 1536-well; active compounds read low; control for the full effect not named in the record. activity change, % (concentration not given with the values). 340,000 compounds, 0.49% hits; in the data active means activity change below about -65%; inconclusive means about -30% to -65%; inactive means above about -30%; also: % is scaled to controls: 0 for no effect and ±100 for the full control effect
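Protein mix (5X: 125 nM each GST-E1A, His-CtBP) was incubated with pinned compound 2 h at 37 deg C in dark, in 50 mM Tris pH 8.0 buffer with 300 mM NaCl. Glutathione donor and nickel acceptor beads followed; AlphaScreen signal read after 1 h.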
Six1-Eya2 inh = blocks human Six1 binding to Eya2 | Q15475+O00167 | AlphaScreen GST-Six1/His-Eya2 binding, biochemical; active compounds read low; control for the full effect not named in the record | activity change, % (no concentration beside the values) | 360,000 compounds, 0.56% hits | AID 651725; in the data active = activity change below about -65%; inconclusive = about -30% to -65%; inactive = above about -30%; also: % is scaled to controls: 0 for no effect and ±100 for the full control effect
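Six1/Eya2 binding was read as AlphaScreen signal after compounds were pinned into GST-Six1 plus His-tagged Eya2 (5X stock 250/500 nM) in pH 8.0 Tris/NaCl/TCEP buffer, beads added, then incubated 1 h, 37 C, dark.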
* hit, by the source's call; ? = inconclusive; nt = not tested or not shown; [ ] = remark or other dose.

SMILES	D2 potentiator	D2 ag	TRPML1 agonist	PINK1 expr mod	CtBP-E1A inh	Six1-Eya2 inh
O=C1[C@H](Oc2ccccc2)[C@@H](c2ccccc2)N1c1ccncc1	nt	-0.5	-0.3	2.5%	1.9	4.0
CCCN(CC(=O)Nc1ccc(Cl)cc1Cl)Cc1cc(=O)n2ccsc2n1	-3.7	-10.2	1.2	1.2%	-9.5	6.6
CCOC(=O)CSc1ccc2nnc(-c3cccnc3)n2n1	-4.2	-0.4	-0.6	0.9%	-5.3	-14.2
CC(C)=CCN1CCN(Cc2cn[nH]c2C2CCCCC2)CC1CCO (configuration not stated)	-13.1	-2.7	3.4	0.4%	1.4	-2.0
Cc1cccc(Nc2c(-c3ccc(O)cc3)nc3ncccn23)c1	-3.4	3.3	-0.3	0.5%	nt	-3.9
O=C(Nc1ccc(S(=O)(=O)N2CCCC2)cc1)C1CC(=O)N(c2ccc(F)cc2)C1 (configuration not stated)	-8.9	7.9	0.5	1.5%	8.4	-1.4
CN(C)C=NCCn1c(N2CCOCC2)nc2c1c(=O)n(C)c(=O)n2C	-6.1	1.0	0.6	-0.8%	6.2	16.2
CCOc1ccc(CCNC(=O)C2CCN(S(=O)(=O)N3CCC(C)CC3)CC2)cc1OCC	-12.2	-2.4	-0.3	5.1%	28.8	9.9
COc1cccc(-c2sc3ccc(OC)cc3c2-c2ccc(C(N)=O)cc2)c1	-4.4	-2.6	-0.4	6.5%	0.2	-0.2
COc1ccc(CNC(=O)C(c2ccncc2)N(C(=O)Cc2cccs2)c2ccccc2C)cc1 (configuration not stated)	4.2	3.2	2.0	7.8%[38.3 µM]	-3.4	-3.5
C/C=C\C(=O)Nc1cccc(C2=NOC3(C2)C[C@@H](C(N)=O)N(C(=O)C2(C)CC2)C3)c1 (some centres not stated)	-6.7	-2.1	-0.6	0.8%	-2.6	1.9
NS(=O)(=O)CCCc1ccccc1	-8.0	0.1	-0.2	-0.3%	0.0	-7.3
O=S(=O)(NCc1csc(-c2ccccc2)n1)c1ccc(Cl)s1	-9.1	-3.2	2.2	2.0%	5.9	-0.5
CCSCCOC(=O)C1=C(C)N(C)C(=O)NC1c1cc(OC)ccc1OC (configuration not stated)	-41.0	0.6	0.8	1.4%	-8.9	-2.4
C[C@@H](NC(=O)C[C@@H]1C[C@@H]2c3cc(NS(=O)(=O)c4ccc(F)cc4)ccc3O[C@@H]2[C@@H](CO)O1)c1ccccc1	7.4	1.5	-0.9	-0.7%	3.3	-3.0
COCCNc1oc(-c2ccccc2Cl)nc1S(=O)(=O)c1ccc(C)cc1	-17.1	0.4	1.1	0.0%	2.0	-1.9
CC1CCN(S(=O)(=O)c2ccc3c(c2)c(=O)c(C(=O)NCc2ccco2)cn3C)CC1	1.0	-3.6	-0.5	-2.3%	18.7	-12.1
O=C(CSC1=NCCS1)Nc1nc2ccccc2s1	-19.8	-1.4	4.1	-2.8%[38.3 µM]	7.9	-1.1
Cc1nc(SCC(=O)NC2(C#N)CCCC2)n(CC(C)C)c1C	1.3	-3.7	0.7	3.1%	-1.5	-3.6
CCCCN(C)C(=O)C1CCCN(S(=O)(=O)c2ccc3c(c2)oc(=O)n3C)C1 (configuration not stated)	-2.6	-7.1	-0.5	-0.6%	4.9	2.6
FC(F)(F)c1cccc(NC(=S)N2CCN(c3ccccc3)CC2)c1	-14.2	1.9	0.1	-1.1%	-2.3	3.5
COc1ccccc1Cc1c(-c2cccc(Br)c2)nc2ccc(Br)cn12	-9.2	-2.2	1.8	?	-12.7	-5.6
CS(=O)(=O)N(CC(=O)N1CCCCCC1)c1cccc(Br)c1	10.3	-0.4	-0.7	1.6%	7.9	4.7
CN(CC(=O)Nc1ccc(F)cc1)C(=O)COC(=O)c1cc(S(=O)(=O)N(C)C)ccc1N1CCCC1	-37.8	-2.4	0.3	-0.9%	6.5	3.8
Cc1cccc(Cc2cnc(NC(=O)C3=NCCN3)s2)c1	-6.5	-1.3	-0.2	2.4%	8.3	-10.9
CCn1cc(C(=O)NCc2ccco2)c(=O)c2cc(F)c(N3CCN(C(=O)c4ccco4)CC3)cc21	13.8	0.5	1.8	-0.7%	-22.2	-16.6
Cc1cc(C)cc(NC(=S)NC2CC3CCCC(C2)N3C2CC2)c1 (configuration not stated)	-7.4	1.3	1.3	2.3%	nt	-9.0
Cc1ccc(/C=C2\SC(=S)N(CCC(=O)NNC(=O)c3ccncc3)C2=O)cc1	-0.7	-2.4	-0.5	9.8%	-1.8	-21.6
O=C1CCCC(O)=C1C1C2=C(CCCC2=O)OC2=C1C(=O)CCC2	-6.6	-3.8	-0.6	1.3%	0.0	11.4
O=C(NCc1ccccc1)C1CCC(=O)N(CCN2CCOCC2)C1 (configuration not stated)	-8.4	-0.8	-1.8	-1.2%	-4.0	2.5
Cc1ccc(-c2nnc(SCC(=O)NC3CCCc4ccccc43)n2N)cc1 (configuration not stated)	5.1	0.4	1.5	2.6%	0.0	0.3
CCCC(=O)N1CCC1(C)C(=O)NS(=O)(=O)c1cccc(C)c1 (configuration not stated)	-0.5	-4.0	-0.5	0.0%	2.4	4.5
N=c1c2c(n(Cc3ccc(Cl)c(Cl)c3)c3c1CCC3)CCCC2	-24.5	-2.7	1.0	?	-1.6	3.6
O=C1NC(c2ccccc2)C(c2ccccc2)N1 (configuration not stated)	-11.0	3.0	-0.2	-1.2%	8.2	5.4
COC(=O)c1ccc(N2CCN(C)CC2)c(NC(=O)COc2cccc(C)c2)c1	-4.3	5.4	-0.3	11.6%	4.7	-4.5
Cc1cc(C)c(OCC(=O)OCC(=O)NNC(=O)c2ccccc2F)c(C)c1	-0.2	-2.2	-0.7	1.7%	nt	3.6
Cn1ccc2c(N3CCOCC3)cc3c(c21)C1CCC3C1 (configuration not stated)	-3.5	-6.8	0.0	3.3%	?	?
CCCC(C(=O)N1CCOCC1)N1C(=O)C2C3C=CC(C3)C2C1=O (configuration not stated)	-3.3	-1.8	0.4	0.4%[38.3 µM]	-13.0	-1.5
CCOC(=O)c1[nH]c(C)c(C(=O)N2CCCC(Nc3ccc(C)c(C)c3)C2)c1C (configuration not stated)	-11.8	-4.0	-0.2	-1.9%	-15.7	-5.4
COc1ccccc1NS(=O)(=O)c1cccc(C(=O)N/N=C/c2c(C)nn(-c3ccccc3)c2N2CCCC2)c1	1.1	0.7	1.1	-2.4%	-20.9	-7.9
CCOC(=O)c1sc(NC(=O)CSc2nnc(C(C)C)n2CC)nc1C	-15.6	-2.2	-0.2	0.9%	-2.2	-0.2
Cc1cc(C)cc(NC(=O)[C@H](Cc2c[nH]c3ccccc23)NC(=O)[C@@H]2Cc3ccccc3CN2)c1	-66.0	-5.4	nt	0.0%	-8.7	-0.3
CCc1ccc(NC(=O)c2cc(S(=O)(=O)N3CCc4ccccc43)cn2C)cc1	-2.2	1.3	1.8	-0.2%	4.6	-8.0
O=C(O)CC(c1ccc(Br)cc1)N1Cc2ccccc2C1=O (configuration not stated)	1.3	-1.7	1.4	3.0%	1.2	8.4
O=C(O)C(Cc1c[nH]c2ccccc12)N1C(=O)c2ccccc2C1=O (configuration not stated)	-3.8	3.3	0.2	-0.1%	-1.3	-1.3
N#C/C(=C\c1ccc(O)cc1)C(=O)NCc1ccccc1	-13.6	-1.0	2.5	-0.5%	-11.3	-6.2
CC(=O)c1ccc(NC(=O)COC(=O)C2CC3C=CC2C3)cc1 (configuration not stated)	-14.2	-2.4	-0.2	0.8%	nt	8.8
O=C(O)c1[nH]c2ccccc2c1C(c1c(F)cccc1Cl)c1c(C(=O)O)[nH]c2ccccc12	-8.9	-4.6	-0.1	-0.5%	nt	-1.7

Compound profiles, from the list above.
O=C1[C@H](Oc2ccccc2)[C@@H](c2ccccc2)N1c1ccncc1 is listed as D2 potentiator: nt; D2 ag: -0.5; TRPML1 agonist: -0.3; PINK1 expr mod: 2.5%; CtBP-E1A inh: 1.9; Six1-Eya2 inh: 4.0
Cc1ccc(/C=C2\SC(=S)N(CCC(=O)NNC(=O)c3ccncc3)C2=O)cc1 is listed as D2 potentiator: -0.7; D2 ag: -2.4; TRPML1 agonist: -0.5; PINK1 expr mod: 9.8%; CtBP-E1A inh: -1.8; Six1-Eya2 inh: -21.6

Next section:
SMILES	D2 potentiator	D2 ag	TRPML1 agonist	PINK1 expr mod	CtBP-E1A inh	Six1-Eya2 inh
O=C(/C(C=Nc1ccc(F)cc1)=C(/O)c1ccco1)C(F)(F)F	-10.3	-3.3	-0.3	4.3%	1.1	-0.7
O=C(Nc1nnc(CSCc2ccccc2F)s1)c1cccc([N+](=O)[O-])c1	-1.8	-2.4	2.7	0.0%	-11.4	-2.8
O=C1CCC(=O)N1CC(=O)N1CCCc2ccccc21	-9.2	-3.7	-0.3	0.5%	-2.2	9.2
C#CCNc1nc(C(C)C)nc2c1nnn2Cc1ccccc1F	-0.6	-0.1	-1.4	1.6%	10.2	1.2
Cc1cscc1-c1nc(NCC2CC2)nc2ccsc12	-13.3	-4.4	0.7	5.3%	48.1	39.2
COc1ccc2ccc(OCC(=O)NCC3CCCO3)cc2c1 (configuration not stated)	-7.9	-3.4	0.5	1.3%	-5.2	4.1
O=C(O)/C=C/c1ccc2c(-c3ccccc3)onc2c1	9.0	-2.2	0.2	-1.7%	-15.8	-3.5
COc1ccc(Cl)cc1-c1cc(C(=O)NCC2CCCCC2)[nH]n1	-9.4	3.5	-0.7	25.5%	0.1	-9.8
Cc1cc(C)n(-c2nc(O)cc(=O)[nH]2)n1	6.5	-1.9	1.0	-1.4%	0.9	-1.2
O=C(NCCc1ccccc1)c1[nH]c(C(F)(F)F)nc1-c1ccccc1	-3.8	-1.8	0.0	0.2%	-0.6	-0.4
Cc1cc(C(=O)CSc2nnc(-c3cccnc3)n2-c2ccccc2F)c(C)n1CC1CCCO1 (configuration not stated)	-12.8	0.0	-1.4	1.0%	-0.6	-9.6
O=C(Nc1cccc(C(F)(F)F)c1)c1cccc(NS(=O)(=O)c2ccc(O)c(C(=O)O)c2)c1	-3.0	-3.9	0.7	-0.1%	3.1	-10.8
O=C(c1ccc(Br)cc1)N1CCN(Cc2ccccc2)CC1	-16.1	-3.2	0.0	1.0%	-1.4	-19.5
CCCCc1nnc(NC(=O)CSCc2cc(=O)n3c(C)csc3n2)s1	-1.3	-1.9	-0.7	1.4%	1.3	1.0
CC(=O)CCc1ccc(OC(=O)c2cccnc2)cc1	0.8	-3.0	2.9	-1.9%	7.7	-0.4
Cc1ccc(S(=O)(=O)N2CCN(CCC#N)CC2)cc1	-3.1	1.6	0.0	0.7%	4.5	9.9
Cc1ccc(C)c(S(=O)(=O)N2CCCCC2CCNC(=O)C(=O)NCc2ccccn2)c1 (configuration not stated)	12.3	3.5	1.7	-0.1%	4.0	1.0
Cc1ccc(N/C=C(/C#N)c2ccsc2)cc1C	-34.9	-7.0	1.1	1.8%	11.3	-0.6
